VCAM-1 rise = enhancers of VCAM-1 display on endothelial cells, cell-based, plate reader, pooled HUVEC, TNFa stimulus (AID 455). HUVEC TNFa-induced VCAM-1 immunofluorescence, plate reader; numbers were filed only for top-ranked candidate wells. augmentation, % at 5 µM. actives 0.2% (n = 10,000);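 active = a compound raising TNF-alpha-driven VCAM-1 surface staining, with its hit status upheld on visual or statistical review; inactive = the rest, including hits rejected on review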;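 also: 0% = TNFa with vehicle and 100% = strongest image-checked hit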
26S disassembly = blocks ATP-dependent breakdown of the yeast 26S proteasome. anti-FLAG beads, GFP-proteasome disassembly, flow cytometry. inhibition of disassembly, % (test concentration not listed). actives 0.2% (n = 24,000). AID 751;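 active = above 40%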;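 also: plate controls were ATP control with full disassembly for no effect and ATP-gamma-S intact proteasomes for full effect; higher percent means more bead fluorescence retained so stronger block of disassembly; stock transfer was 100 nL into about 10 µL; wells with too few beads may also be inconclusive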
The depositor's hits bear a star; i = inactive; . = not tested or not shown. Some of the compounds tested; the hit share may differ from the screen's.

SMILES	VCAM-1 rise	26S disassembly
CCn1cc(C(=O)NCC2CCCO2)c(=O)c2cc(S(=O)(=O)N3CCCCCC3)ccc21 (stereo not given)	.	1.7
COc1cc(NC(=O)C2C3C=CC(C3)C2C(=O)O)c(OC)cc1Cl (stereo not given)	i	-1.7
CCCc1ccc(Oc2cn[nH]c2-c2ccc(O)c(C)c2O)cc1	i	-1.5
CCOC(=O)/C=C1\NC(C)(C)Cc2cc(OC)c(O)cc21	.	-2.1
Cc1nc(C)c(C(=O)OCC(=O)N2CCN(c3ccccc3)CC2)s1	i	-3.4
Cc1cccc(CC(=O)Nc2c3c(nn2-c2cccc(Cl)c2)CS(=O)C3)c1 (stereo not given)	i	-0.1
COc1ccc(CN2CCN(C(=O)c3cccs3)CC2)cc1	.	0.1
COC(=O)C(C)Sc1nnc(Cc2cc(=O)[nH]c(=O)[nH]2)n1-c1cc(C)ccc1C (stereo not given)	.	-0.1
COC(=O)Nc1ccc(S(=O)(=O)N(CCO)CC(F)(F)C(F)F)cc1	.	-0.6
Cc1cc(O)c(NC(=O)c2ccc(Br)o2)cc1C	i	1.4
C=CCN1C(=O)CS/C1=N/c1nccs1	i	0.2
CCC(=O)Nc1c(OC(=O)CC)ccc2c(C)cc(=O)oc12	.	-0.2
CCOC(=O)C1=C(C)NC(=O)C(C#N)C1c1ccco1 (stereo not given)	i	-1.3
CCc1ccccc1Nc1ccc(C(=O)O)cc1N	.	4.2
COc1ccc(OC)c(NC(=O)CSCc2cnn(-c3ccccc3)c2-n2cccc2)c1	.	0.7
Cc1ccc(S(=O)(=O)n2nc(C)c(Br)c2C)c(C)c1C	.	0.0
Cc1cccc(-c2nc(CS(=O)CC(=O)N3CCN(C)CC3)c(C)o2)c1 (stereo not given)	.	1.4
O=C(NCc1ccccc1)c1cnc2n(c1=O)CCS2	.	1.2
COCCN(CC(=O)Nc1ccccc1C)S(=O)(=O)c1ccc(S(=O)(=O)N2CCCC2)cc1	i	0.7
COc1ccc(-c2nnc3sc(C(C)N4C(=O)c5ccccc5C4=O)nn23)cc1 (stereo not given)	i	0.2
O=C(Nc1cnn(Cc2ccc(Cl)cc2Cl)c1)c1cc(-c2cccs2)on1	.	-0.2
COc1ccc(C(=O)N2CCN(S(=O)(=O)c3cc(Cl)ccc3OC)CC2)cc1	i	1.8
Cc1cccc(C(=O)N2CCN(Cc3ccc4c(c3)OCO4)CC2)c1	.	0.4
O=C(NCCN1CCC(Cc2ccccc2)CC1)C1CCCN(S(=O)(=O)c2cnc[nH]2)C1 (stereo not given)	.	0.1
COc1ccccc1NC(=O)N(Cc1ccco1)Cc1cc2c(C)ccc(C)c2[nH]c1=O	i	-3.6
O=C1CC(N2CCN(C3CCc4ccccc4C3)CC2)C(=O)N1c1ccccc1 (stereo not given)	i	-0.6
CCOc1cc2[nH]c(=O)n(CCCCC(=O)NCc3ccco3)c(=O)c2cc1OCC	i	0.2
Cc1ccc(-c2noc(CCC(=O)NCCc3ccccc3Cl)n2)cc1	i	0.1
COc1ccccc1NC(=O)CN1C(=O)C2(OCCCO2)c2ccccc21	.	-1.8
CC1Cc2ccccc2N1C(=O)CCNS(=O)(=O)c1cccc2nsnc12 (stereo not given)	.	1.3
CCC(C)NC(=O)C(Cc1ccccc1)n1cccc1 (stereo not given)	.	1.3
CC(=O)Nc1c(I)c(NC(C)=O)c(I)c(C(=O)O)c1I	i	1.8
CCOC(=O)C1CCN(S(=O)(=O)c2ccc(NC(=O)OC)cc2)CC1	.	-1.7
CCOC(=O)Cc1nnc(NC(=O)C(CC)Sc2nncn2C)s1 (stereo not given)	.	1.0
CC(C)CC(NC(=O)C1CCCCC1)C(=O)NCc1ccccn1 (stereo not given)	.	6.9
N#CC1=C(N)n2c(s/c(=C\c3ccco3)c2=O)=C(C#N)C1c1ccco1 (stereo not given)	i	1.3
COC(=O)C1=C(C)NC(=O)NC1c1ccc(OCC(=O)N2CCCCC2)cc1 (stereo not given)	.	3.3
CC(C)Cc1cc(C(=O)NCCc2ccccc2)no1	.	-0.6
Cc1ccc2cc3cc(C(=O)NCCCN4CCc5ccccc5C4)oc3nc2c1	.	0.7
CC(=O)C1C(c2cn(-c3ccccc3)nc2-c2cccs2)NC(=O)NC1(O)C(F)(F)F (stereo not given)	.	4.6
O=C(Nc1ccccc1C(=O)N1CCCC1)c1cccc(S(=O)(=O)N2CCCCC2)c1	.	-0.8
COC(=O)C1=C(C(=O)c2ccc(C)cc2)C(c2ccc(OC)c(OC)c2)n2nnnc2N1 (stereo not given)	.	2.8
O=C(Cc1coc(-c2ccc(F)cc2)n1)NCc1ccccc1	.	-1.6
CCc1nn(CC(=O)NCCN2CCN(C)CC2)c(=O)c2cc3occc3n12	.	-2.5
O=C(NCC(=O)N1CCCC1)c1cccs1	.	0.2
O=C(CCNC(=O)Cn1ccc2ccccc2c1=O)NCCCN1CCN(c2ccc(F)cc2)CC1	.	2.0
OCCNCCCCOc1ccccc1F	i	0.1
O=C(CCn1c(=O)sc2ccccc21)Nc1ccon1	.	-0.7
COc1ccccc1CNC(=O)N[C@@H](Cc1ccccc1)C(=O)O	i	-1.9
O=C(c1cc2nc(-c3ccco3)cc(C(F)(F)F)n2n1)N1CCN(c2ccccn2)CC1	i	6.8
Later entries.
SMILES	VCAM-1 rise	26S disassembly
CC1=C(C(=O)Nc2ccccc2)C(c2cccs2)C(C#N)=C(SCC#N)N1 (stereo not given)	i	0.7
O=C(C1CC1)N1CCc2cc(Br)cc(S(=O)(=O)NCc3ccco3)c21	.	0.9
CC1CCCN(C(=O)CNC(=O)Cn2ccc3ccccc3c2=O)C1 (stereo not given)	.	-2.8
CCOCCCNC(=O)c1cc2sc(Cl)cc2n1CC	i	1.5
Cc1ccc(S(=O)(=O)N2CCN(C(=O)CN3CCOCC3)C2)cc1	.	0.3
Cc1ccccc1S(=O)(=O)Cc1ccc(C(=O)N2CCN(c3ncccn3)CC2)o1	.	-0.3
N#Cc1c(NCc2ccccc2)ccnc1NCc1cccnc1	i	0.7
CC(=O)c1c(OC(=O)c2ccco2)c2ccccc2n1C	i	-1.4
CCCS(=O)(=O)N1CCN(C(=O)c2cccs2)CC1	i	0.9
COC(=O)C(c1cc(OC)c(O)c(OC)c1)(N1CCNC(C)C1)C(F)(F)F (stereo not given)	.	1.2

Ordered by length of the SMILES (falling): 7 of the compounds above.
SMILES	VCAM-1 rise	26S disassembly
Cc1ccccc1S(=O)(=O)Cc1ccc(C(=O)N2CCN(c3ncccn3)CC2)o1	.	-0.3
COC(=O)C(c1cc(OC)c(O)c(OC)c1)(N1CCNC(C)C1)C(F)(F)F (stereo not given)	.	1.2
CC1=C(C(=O)Nc2ccccc2)C(c2cccs2)C(C#N)=C(SCC#N)N1 (stereo not given)	i	0.7
O=C(C1CC1)N1CCc2cc(Br)cc(S(=O)(=O)NCc3ccco3)c21	.	0.9
Cc1ccc(S(=O)(=O)N2CCN(C(=O)CN3CCOCC3)C2)cc1	.	0.3
CC1CCCN(C(=O)CNC(=O)Cn2ccc3ccccc3c2=O)C1 (stereo not given)	.	-2.8
CCCS(=O)(=O)N1CCN(C(=O)c2cccs2)CC1	i	0.9

Additional compounds.
SMILES	VCAM-1 rise	26S disassembly
COc1ccc(C2NC(=O)c3n[nH]c(C)c32)c(OC)c1 (stereo not given)	.	0.0
COc1ccc(NC(=O)NCCCN2CCCC2=O)cc1	.	-2.0
Cn1cc(C(=O)N2CCN(C(=O)c3ccco3)CC2)c2c3ccccc3n(C)c2c1=O	.	0.8
O=C(NC1CCCCCCC1)C1CCN(c2nc3ccccc3o2)CC1	i	-6.3
CCOC(=O)c1c(C2CCN(C(=O)OCC)CC2)nc2ccccn12	.	2.6
Cn1c(=O)c2cc(S(=O)(=O)NCCC(=O)Nc3ccc(Cl)cc3)ccc2n(C)c1=O	.	0.1
Cc1ccc(C)c(NS(=O)(=O)c2c(C)nn(C)c2C)c1	.	0.2
O=C(C1CCCN(S(=O)(=O)c2cccnc2)C1)N1CCn2c1nc1ccccc12 (stereo not given)	i	-0.4
O=C(Nc1ccc2c(c1)OCCO2)c1cnc2n(c1=O)CCS2	i	-0.6
CC1(C)CC(=O)C2=C(C1)N1CCCCC1CC2=O (stereo not given)	.	1.3
COC(=O)c1nnn(CC(=O)Nc2ccc(C)c(F)c2)c1C(=O)OC	.	0.2
O=C(O)C1CCCCN1S(=O)(=O)c1ccc(Cl)s1 (stereo not given)	.	0.4
O=C1c2ccccc2C(=O)N1CCN1CCCCC1	i	-1.6
CCOC(=O)c1[nH]c(C)c(C(=O)Nc2ccc(C)c(Cl)c2)c1C	i	-1.7
CC1CN(c2c3c(nc4ncnn24)CCCC3)CC(C)O1 (stereo not given)	i	-1.0
Cc1ccc2c(c1)N(CCC(=O)NCc1ccc3c(c1)OCO3)C(=O)CO2	.	0.9
COC(=O)c1ccc(C(=O)OC)c(NC(=O)c2cnc3n(c2=O)CCS3)c1	.	-0.5
CCOc1ccc2[nH]c(C)c(CN3CCN(CC)CC3)c(=O)c2c1	.	1.6
Cc1cc(=O)[nH]c(SCC(=O)Nc2nc3c(s2)CCCC3)n1	.	0.0
CC(=O)N1CCC(N(CCCOC(C)C)C(=O)Nc2ccc(Cl)cc2)CC1	.	0.6
Cn1c(=O)[nH]c2cc3ccccc3cc21	i	0.4
Cc1ccc(C)c(NC(=O)CC(NCCCN2CCOCC2)C(=O)O)c1 (stereo not given)	i	0.5
COC(=O)c1ccccc1Nc1ccccc1	.	0.7
CCn1c(=O)cc(OCC(=O)Nc2nc(C)cs2)c2ccccc21	i	0.7
Nn1c(SCC(=O)Nc2ccc(S(=O)(=O)N3CCCC3)cc2)nnc1C(F)(F)F	i	-0.2
COc1ccc(CNC(=O)COC(=O)c2n[nH]c3ccccc23)cc1OC	i	1.9
CN(C)c1nc(N(C)C)nc(N(C)C)n1	i	0.9
CC1(C)CC(=O)C=C(Nc2ccc(OCC(F)(F)C(F)F)cc2)C1	i	-1.4
COC(=O)C1=C(C)N=C2SCCC(=O)N2C1c1cc(Br)ccc1OC (stereo not given)	.	-0.8
Cc1ccccc1-c1nc(CN2CCC(C(=O)NCCCN3CC(C)CC(C)C3)CC2)c(C)o1 (stereo not given)	.	2.6
Cc1cc(C)n(S(=O)(=O)Cc2ccccc2)n1	i	-0.3
CCCCC(=O)NCc1ccc2c(c1)cc(C)n2C	.	-0.3
Cc1cc(Nc2ccccc2Br)n2nc(C)nc2n1	.	0.3
CC(=O)N1CCN=C1SCc1ccc(Br)cc1	i	1.4
Cn1cccc1Cc1nnc(SCC(=O)Nc2cccc(F)c2)n1-c1ccc(F)cc1	.	1.0
CC(C)(C)n1ncc2c(=O)n(CC(=O)Nc3ccccc3)cnc21	.	-0.5
Cc1ccc(Cn2ccc(NC(=O)c3cc(-c4ccc(Br)cc4)on3)n2)cc1	.	1.8
COc1ccc(C(=O)N(CN2CCCC2=O)c2ccc(C)cc2)cc1	.	0.1
CN1CSC2=C(C#N)C(c3cccc(OCc4ccccc4)c3)CC(=O)N2C1 (stereo not given)	.	0.4
N#Cc1cn(CC(=O)N2CCCC2)c2ccccc12	i	-4.3

Whole records, looked up by structure:
CC(=O)N1CCN=C1SCc1ccc(Br)cc1 is entered as VCAM-1 rise: i; 26S disassembly: 1.4
CC(C)(C)n1ncc2c(=O)n(CC(=O)Nc3ccccc3)cnc21 is entered as VCAM-1 rise: .; 26S disassembly: -0.5

The listing continues:
SMILES	VCAM-1 rise	26S disassembly
CCSC(SCC)[C@H](O)[C@@H](O)[C@H](O)[C@H](O)CO	i	-0.3
COc1ccc(C(CNC(=O)c2cc(C)oc2C)N2CCOCC2)cc1 (stereo not given)	i	3.5
O=C(Nc1cccnc1)c1ccc2snnc2c1	.	-1.9
Cn1c(Cn2c(=O)sc3ccccc32)nnc1SCC(=O)N1CCOCC1	.	-2.9
Cc1ccc(C2CC(c3ccc(F)cc3)Nc3nc(N)nn32)cc1 (stereo not given)	.	-0.6
CC(=O)Nc1cccc(NC(=O)CSc2nnc(Cc3cccn3C)n2-c2ccc(F)cc2)c1	.	-2.0
CC(C)C(=O)Nc1c(C(=O)c2ccc(F)cc2)oc2ccccc12	.	0.1
COc1ccc(N(CC(=O)NCc2cccs2)S(=O)(=O)c2c(C)nn(C)c2C)cc1	.	-0.4
O=C(O)CCC(=O)N1CCc2cc(S(=O)(=O)NCc3cccs3)ccc21	.	-2.0
CCOc1ccc(C(C)=O)cc1COc1ccc(-n2cnnn2)cc1	i	0.0
COc1ccccc1N1CCN(C(c2cccs2)C(C)NC(=O)c2cccs2)CC1 (stereo not given)	.	-0.1
CC(=O)c1cc(-c2ccccc2)n(CC(=O)N2CCN(C3CCCC3)CC2)c1C	i	-2.5
Cn1c(/C=N/n2cnnc2)nc2ccccc21	i	1.1
O=c1oc2ccc(Br)cc2cc1-c1nc2ccccc2o1	.	2.6
Cc1cc(C(F)(F)F)nc(NCc2ccc(F)cc2)n1	.	-1.7
CCn1nc(C(=O)O)c(=O)c2cc3c(cc21)OCO3	i	0.0
CCOC(=O)N1CCN(C(=O)CSc2nnc(-c3ccccc3OC)o2)CC1	.	0.7
Cc1ccc(S(=O)(=O)NCCC(=O)NCc2ccccc2)cc1	.	-0.9
CC1CCC(NC(=O)c2ccc(N3CCCC3=O)cc2)CC1 (stereo not given)	.	5.1
CCC(=O)N1CCNC(=O)C1CC(=O)Nc1ccc(C)c(Cl)c1 (stereo not given)	i	0.7
Cc1cc(S(=O)(=O)Nc2cccc(O)c2)c(C)s1	.	0.7

High-throughput results: PubChem, several laboratories
